BasE inh: BasE siderophore enzyme inhibitors, primary screen, biochemical, Acinetobacter baumannii ATCC 17978, fluorescence polarization. hit rate 0.1% among 84,000. purified BasE, fluorescence polarization binding displacement. AID 485350, 2010. inhibition, % (test concentration not listed);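 active means both replicates above 25% with normal brightness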;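 further: 0% = negative plate control signal and 100% = positive plate control signal; stock transfer was 100 nL into about 30 µL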
LANA-nucl inh: inhibitors of KSHV LANA-nucleosome binding, primary screen, biochemical, fluorescence polarization, FITC-LANA1-23, chicken nucleosomes | FITC-LANA1-23 / chicken nucleosome fluorescence polarization; hits give low values | z-score (no concentration beside the values) | hit rate 0.3% among 51,000 | AID 720717, 2013;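 active means both repeat wells score below -2 in polarization z-score versus plate sample wells, excluding overly bright wells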;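 further: 100 nL library stock added to about 30 µL; numbers are from one replicate; some results filed as inactive read as strong as hits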
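System – purified chicken nucleosomes with FITC-labelled LANA N-terminal peptide (1-23) · Amount – 240 nM purified chicken nucleosomes (480 nM peptide binding sites), final · Also added – 50 nM FITC-LANA1-23 probe · Medium – TEN-BT buffer, pH 7.5 · Incubation – compound with peptide–nucleosome mix 10–45 min at room temperature · Detection – fluorescence polarization, ex 480 nm, em 535 nm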
An asterisk follows results filed as active; nt = no result given; & = joins results of further samples; ! = a repeat was not active. A portion of the library; count on the stated rates, not on these rows.

SMILES	BasE inh	LANA-nucl inh
Cc1ccc(N2C(=NC(=O)CCC(=O)O)SC3CS(=O)(=O)CC32)cc1C (stereo not given)	0.3	-0.77
COc1ccccc1N1CCN(C(=O)c2cccn2C)CC1	0.5	nt
O=C(c1ccco1)c1cc(-c2nc3ccccc3[nH]2)c(-c2ccco2)n2c1nc1ccccc12	0.3	nt
Nc1c(C(=O)c2cc(F)ccc2O)cnn1-c1ccc(Cl)cc1	0.2	nt
Cc1nonc1OCC(C)(COc1nonc1C)NS(=O)(=O)c1ccccc1	1.2	-1.1
CC1=CC(=C(C#N)C#N)C=C(C)N1CC1CCCO1 (stereo not given)	0.7	nt
O=C1C2CCc3[nH]c4ccccc4c3C2C(=O)N1Cc1ccccc1 (stereo not given)	0.2	1.9
O=C(N/N=C/c1cn(-c2ccccc2)nc1-c1cc2ccccc2o1)c1ccncc1	2.0	nt
Clc1ccc(-c2cnc3nonc3n2)cc1	38	-0.58
O=C(/C=C/c1ccco1)NCCc1csc2nc(-c3ccc(F)cc3)nn12	2.9	-0.052
Cc1cc(N2CCCCC2)nc2ccc(NC(=O)c3ccc(Br)o3)cc12	-0.3	0.72
COC(=O)c1ccc2c(=O)n(CCCC(=O)O)c(=S)[nH]c2c1	3.1	-0.61
Cc1nn(CCC#N)c2nc(C(F)(F)F)[nH]c(=O)c12	-1.9	nt
COc1cc(SC)ccc1C(=O)N1CCC(C(N)=O)CC1	0.7	-0.058
Cc1c(Cl)cccc1NC(=O)CC(NCc1ccccn1)C(=O)O (stereo not given)	-1.8	nt
O=c1[nH]c(NC2CCN(S(=O)(=O)c3ccccc3C(F)(F)F)CC2)nc2c1CCCC2	0.2	0.11
CCN1CCN(c2oc(COc3ccc(Cl)cc3)nc2C#N)CC1	-5.8	-1.3
O=C(Cc1csc(-c2ccccc2)n1)NC1CC1	0.6	nt
O=C(O)c1ccccc1SCC(=O)N1CCOCC1	3.2	-0.43
N#Cc1ccc(CSc2ncn[nH]2)cc1	1.0	nt
O=C(Cn1ncc2ccc(Cl)cc21)NCc1ccccc1	1.9	0.3
O=C1/C(=C/c2c[nH]c3ccccc23)CSc2ccccc21	1.2	nt
COCc1nnc(NC(=O)C2CC(=O)N(CCc3ccc(F)cc3)C2)s1 (stereo not given)	-2.0	0.07
Cc1ccc(C(=O)CSc2ncn[nH]2)c(C)c1	0.6	-0.59
CCOC(=O)/C(=C\c1cccs1)C(=O)CN1C(=O)c2ccccc2S1(=O)=O	0.8	nt
Cc1ccc(/C(O)=C2/C(=O)C(=O)N(CCCN(C)C)C23C(=O)N(C)c2ccccc23)cc1F (stereo not given)	3.0	0.78
Cc1cc(C)cc(NC(=O)CN2CCN(S(=O)(=O)c3ccccc3)CC2)c1	0.6	nt
CN(C)S(=O)(=O)c1ccc(C(=O)NCCC23CC4CC(CC(C4)C2)C3)cc1	-3.0	nt
CCN(CC)CCCC(C)Nc1c2ccc(Cl)cc2nc2ccc(OC)cc12 (stereo not given)	51&-0.2	-2.3*!
CCOC(=O)/C=C1\SCC(=O)N1CCSc1nncn1-c1ccccc1	0.2	nt
CCc1ccc(Nc2nc(N)nc(-c3oc4ccccc4c3C)n2)cc1	1.3	-0.55
COC(=O)c1ccc(NC(=O)c2ccccc2C)cc1OC	nt	0.27
CCC(CO)NC(=S)Nc1ccsc1C(=O)OC (stereo not given)	3.0	nt
COc1ccc(/C=N/NC(=O)Nc2nonc2N)cc1	3.9	0.05
CCCCC/C=C\C[C@H](O)/C=C/C=C\C/C=C\CCCC(=O)O	-5.4	0.92
CC1=CC(=Nc2c(C)n(C)n(-c3ccccc3)c2=O)c2ccccc2C1=O	-0.9	0.008
COc1cccc(-n2c(SCC(=O)Nc3ccc4[nH]c(=O)[nH]c4c3)nc3ccccc3c2=O)c1	-9.5	nt
Cc1[nH]c(=O)[nH]c(=S)c1C#N	-1.1	nt
CC(N)c1ccc(Br)cc1 (stereo not given)	-3.4	nt
CCn1cc(Br)c(C(=O)Nc2ccccc2C(C)(C)C)n1	0.7	0.76

Laid out differently: results already given.
The line under a structure holds: BasE inh, LANA-nucl inh
> Cc1ccc(/C(O)=C2/C(=O)C(=O)N(CCCN(C)C)C23C(=O)N(C)c2ccccc23)cc1F (stereo not given)
 : 3.0, 0.78
> Cc1cc(C)cc(NC(=O)CN2CCN(S(=O)(=O)c3ccccc3)CC2)c1
 : 0.6, nt
> CN(C)S(=O)(=O)c1ccc(C(=O)NCCC23CC4CC(CC(C4)C2)C3)cc1
 : -3.0, nt
> CCN(CC)CCCC(C)Nc1c2ccc(Cl)cc2nc2ccc(OC)cc12 (stereo not given)
 : 51&-0.2, -2.3*!
> CCOC(=O)/C=C1\SCC(=O)N1CCSc1nncn1-c1ccccc1
 : 0.2, nt
> CCc1ccc(Nc2nc(N)nc(-c3oc4ccccc4c3C)n2)cc1
 : 1.3, -0.55

(further entries)
SMILES	BasE inh	LANA-nucl inh
O=C(Cc1ccc2c(c1)OCCO2)Nc1ccc(-c2nnc3n2CCCCC3)cc1	-2.0	nt
CC1CNCCN1S(=O)(=O)c1cccc2cnccc12 (stereo not given)	-2.8	-0.62
CCOC(=O)c1sc(N)c(C#N)c1COC(=O)C1CSC2(C)CCC(=O)N12 (stereo not given)	-30	nt
CC1CCc2[nH]c(=S)nc(C(F)(F)F)c2C1 (stereo not given)	1.7	0.23
CCNc1ccc(-c2nc3ccccc3[nH]2)cn1	0.7	nt
CC(Sc1ccccc1)C(=O)NN=C1CCCC1 (stereo not given)	1.8	-0.34
O=C(CSc1nnc(Cc2ccccc2)o1)c1ccccc1	0.3	-0.44
Cc1ccc(-c2noc(CCCC(=O)NCC3CCCO3)n2)cc1 (stereo not given)	-0.6	-0.013
[O-][n+]1c2c(nn1-c1ccccc1)/C(=N\O)CCC2	2.2	0.24
COc1ccc(-c2noc(COC(=O)C3=NN(c4cc(C)ccc4C)C(=O)CC3)n2)c(OC)c1	1.7	nt
CCOc1cc(-n2cnnn2)c(OCC)cc1NC(=O)c1cc2cccc(OC)c2oc1=O	0.8	-1.4
O=C(Nc1cccc(C(F)(F)F)c1)N1CCC(CN2CCOCC2)CC1	-0.7	-0.59
COc1ccc(C(C#N)c2nc3ccccc3nc2C(F)(F)F)cc1 (stereo not given)	nt	-0.93
O=C(COc1cccc(-n2cnnn2)c1)N1CCCCCC1	1.0	nt
CN=C(Nc1cc(C)nn1CCC#N)c1ccccc1	-3.1	nt
N#Cc1ccccc1CS(=O)(=O)N1CCOCC1	0.5	nt
N#Cc1ccc(-c2ccccc2)nc1SCCN1CCOCC1	-2.6	0.33
CCOC(=O)c1c(-c2ccccc2)oc2ccc(N(C(C)=O)S(=O)(=O)c3ccc(OC)cc3)cc12	1.3	nt
Cc1ccc(-n2nnnc2SCC(=O)N2Cc3ccccc3CC2C(=O)O)cc1 (stereo not given)	-3.2	nt
CCN1/C(=C2\C(=O)N(c3ccccc3)N=C2C)C=Cc2cc(OC)ccc21	1.7	0.25
Cc1nn(-c2ccccc2)c(C)c1CN=Cc1c(O)[nH]c(=O)[nH]c1=O	0.4	nt
COc1cccc(NC(=O)N2CCNCC2)c1	3.0	-1
O=C1Nc2ccc(Br)cc2C1Cc1ccco1 (stereo not given)	-5.2	0.91
N#Cc1sc2c(c1OC(=O)c1cccs1)c(=O)n(-c1ccccc1)c(=S)n2-c1ccccc1	2.3	nt
Cc1cnc(NC(=O)CSc2ccc(Cl)cc2)s1	2.9	nt
CC1C/C(=C/c2cccs2)C(=O)/C(=C/c2cccs2)C1 (stereo not given)	-1.3	-0.18
CCC1NCCc2sccc21 (stereo not given)	0.2	-0.38
CCN(CC)S(=O)(=O)c1ccc(C(=O)Nc2nc(-c3ccc4c(c3)OCO4)cs2)cc1	0.2	1.1
N#Cc1c(Sc2ccccc2)nc2sccn12	nt	-0.48
Cc1sc(N)c(C(=O)c2cccc(C(F)(F)F)c2)c1C	nt	0.33
Cc1ccc(N2CC(C(=O)NCc3ccncc3)CC2=O)cc1C (stereo not given)	0.5	-0.89
COc1cccc(CNCc2cccnc2)c1OCC(N)=O	0.6	-0.56
CC(=O)NC(NCc1ccccc1)(C(F)(F)F)C(F)(F)F	0.3	nt
O=C(O)c1cccn1-c1ccc(Br)cc1	nt	0.069
Cc1cccc(N(C)C(=O)c2cc(S(=O)(=O)N3CCc4ccccc43)cn2C)c1	-5.5	3.5
CCN(CC)C(=O)c1sc(NC(=S)Nn2cnnc2)c(C(=O)OC)c1C	3.4	-0.39
CCC(C)NS(=O)(=O)c1cc(-c2cc(C)no2)ccc1C(C)C (stereo not given)	1.6	nt
Cc1ccc(NC(=O)c2cccs2)cc1	-1.9	-0.021
N#Cc1ccc(NC(=O)COC(=O)/C=C/c2cn(-c3ccccc3)nc2-c2cc3ccccc3o2)cc1	0.7	nt
O=P(O)(Cc1ccccc1)Cc1ccccc1	2.7	0.11
CSc1ncccc1C(=O)Nc1ccc(S(C)(=O)=O)cc1	-2.2	nt
O=C(NCCc1ccccc1)c1ccc2c(=O)n3nc(Nc4ccccc4)sc3nc2c1	0.3	-0.5
CC(=O)N1c2ccc(S(=O)(=O)N3CC(=O)N(CCc4ccccc4)C(=O)C3)cc2CC1C (stereo not given)	0.9	-0.14
O=C1CCCC2=C1C(c1ccccn1)Nc1ccc3ncccc3c12 (stereo not given)	1.6	-0.38
CCOC(=O)c1c(C)nn(-c2ncccc2NC(=O)c2ccccc2C(=O)O)c1C	0.5	-0.75
Cc1cc(O)cc(=O)n1Cc1ccccc1	-0.3	-0.24
O=C(CN1c2ccccc2-c2ccccc2S1(=O)=O)N1CCCCC1	-4.4	-0.27
CCn1nc(C(=O)Nc2ccc(OC)cc2)c2ccccc2c1=O	0.6	nt
CCCCN(C(=O)C1CCC1)c1nnc(-c2ccncc2)s1	-2.5	-0.015
O=C(C1CCN(c2nc3ccccc3n3cccc23)CC1)N1CCc2ccccc21	-1.4	0.0025
Cc1cccc(C(=O)Nc2ccc(O)cc2)c1	3.6	nt
Nc1ccc(S(=O)(=O)Nc2ccnn2-c2ccccc2)cc1	0.5&1.6	0.28&-0.35
Cn1c(C(=O)NCc2ccccc2Cl)cc2oc3ccccc3c21	0.8	-0.67
CCN(CC)CCn1c2c(c(SCC(=O)Nc3nc(C)cs3)nc1=O)CCCC2	-9.7	-1.7
COC(=O)c1ccc2c(=O)[nH]c(COC(=O)c3ccc(Cl)c(N)c3)nc2c1	0.9	nt
COc1cccc2c1Oc1nn(-c3ccccc3)c(N)c1C2	-4.3	2.2
CCN(CC)CCSc1nc(CC(C)C)nc2c1c(=O)n(C)c(=O)n2C	0.4	0.19
COc1ccc(N/N=C(\C#N)C(=O)Nc2ccccc2C(=O)O)cc1Cl	80*	nt
CCCCNC(=O)c1ccc2c(c1)NC(=O)C(CS(=O)(=O)Cc1ccccc1Cl)N2 (stereo not given)	-7.9	0.41
O=C(O)c1nn(CC(=O)N2N=C(c3ccc(Cl)cc3)CC2c2ccco2)c(=O)c2ccccc12 (stereo not given)	4.6	nt
Carrying on:
SMILES	BasE inh	LANA-nucl inh
CCNC(=O)NC1(C(=O)Nc2ccc3c(c2)OCCO3)CCCCC1	1.9	-0.56
Cn1c(=O)c2c(ncn2CC(=O)N/N=C/c2ccc(Br)s2)n(C)c1=O	-0.7	0.21
CN1C(=O)CC(=O)N(C)c2ccccc21	2.0	-0.26
O=C(/C=C/c1ccccc1)Nc1ccc(Oc2ccc(F)cc2F)nc1	3.1	nt
NS(=O)(=O)c1ccc(CNC(=O)CCC2CCCCC2)cc1	0.4	nt
Cc1ccc(-c2c(C)n([O-])c(C)c(C)[n+]2=O)cc1	0.5	-0.7
COC(=O)[C@H]1[C@H]2C[C@H]3c4[nH]c5ccccc5c4CCN3C[C@@H]2CC[C@@H]1O	0.8	-0.94
O=c1[nH]c(=S)n(CCc2ccccc2)c2c1CN(CCc1ccccc1)CN2	-2.8	0.69
CCc1nnc(NC(=O)c2nn(-c3ccccc3)ccc2=O)s1	-1.1	0.62
CSc1ccccc1NC(=O)COC(=O)/C=C/c1ccco1	-0.3	nt
Cc1nc2ccccc2nc1CSCc1n[nH]c(=O)[nH]1	2.3	-1.7
COc1ccc(-c2nnc(SCc3cccc(C#N)c3)o2)cc1	-1.0	-0.94
CC(=S)OC1CC2CC1C1CCCC21 (stereo not given)	nt	0.8
NC(=O)CN1c2cccc3cccc(c23)S1(=O)=O	-0.9	-1.6
CCNc1nc(OCCO)nc(N(C)C)n1	0.2	nt
Cc1cn2c(=O)c(C(=O)NCCCc3ccccc3)cnc2s1	0.6	0.24
CC1Cc2ccccc2N1C(=O)c1cc(S(=O)(=O)N2CCCC2)cn1C (stereo not given)	-1.1	2.7
CC(c1ccccc1)N1C(=O)c2ccccc2C1=O (stereo not given)	2.0	-0.071
CCCC(=O)C1CCN(Cc2ccccc2)CC1	0.4	-0.16
COc1ccc2nc(SCc3nnc(-c4ccccc4)o3)c(C#N)cc2c1	3.2	0.64

Grouped by structure: those above containing a CF3 group.
SMILES	BasE inh	LANA-nucl inh
Cc1nn(CCC#N)c2nc(C(F)(F)F)[nH]c(=O)c12	-1.9	nt
O=c1[nH]c(NC2CCN(S(=O)(=O)c3ccccc3C(F)(F)F)CC2)nc2c1CCCC2	0.2	0.11
CC1CCc2[nH]c(=S)nc(C(F)(F)F)c2C1 (stereo not given)	1.7	0.23
O=C(Nc1cccc(C(F)(F)F)c1)N1CCC(CN2CCOCC2)CC1	-0.7	-0.59
COc1ccc(C(C#N)c2nc3ccccc3nc2C(F)(F)F)cc1 (stereo not given)	nt	-0.93
Cc1sc(N)c(C(=O)c2cccc(C(F)(F)F)c2)c1C	nt	0.33
CC(=O)NC(NCc1ccccc1)(C(F)(F)F)C(F)(F)F	0.3	nt

Screening results as filed in PubChem.
